E coli growth: inhibitors of Escherichia coli growth; AID 1053175; 330,000 tested, 0.21% active; OD600 absorbance (no concentration beside the values); OD600, 23 h; hits give low values;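 active means OD600 absorbance below the run mean of sample wells minus 3.6 SD, in any replicate, cut at about 0.56 in these data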;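 further: stock transfer was 300 nL into about 60 µL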
UCH37 DUB inh: blocks the human deubiquitinase UCH37; Q9Y5K5; purified proteasome/UCH37, Ub-AMC cleavage fluorescence; inhibition, % (test concentration not listed); 330,000 tested, 0.33% active;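 active means mean of two replicates above 20%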;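 further: 0% = compound-free wells with enzyme and 100% = wells lacking proteasome; stock transfer was 100 nL into about 20 µL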
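Reagent: Ub-AMC substrate; assay system: Proteasome-associated human UCH37 deubiquitinase; controls: no-proteasome and no-compound wells; read-out: % inhibition of Ub-AMC cleavage fluorescence; timing: 30 min preincubation with enzyme, 25 min cleavage at room temperature; signal: AMC fluorescence from Ub-AMC cleavage, excitation 355 nm, emission 460 nm; buffer or medium: Tris-HCl pH 7.4 plus ovalbumin, ATP-MgCl2, DTT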
Bfl-1 A1 inh: inhibitors of the anti-apoptotic protein A1, read as caspase activation. MEF A1-2A-BIM cells, Caspase-Glo 3/7 luminescence, 3 h; percent of clofoctol response, vehicle zero. caspase activation, % (concentration not given with the values). 330,000 tested, 0.066% active;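 active means over half of replicate activation scores above 10%, or exactly half above 10 with the replicate mean above 10; inconclusive means replicate mean below 10 yet half the replicates above 10; inactive means over half of replicates below 10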;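 further: wells of about 30 µL received 50 nL stock; many hits fall short of the cut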
HNF4A DNA FP: change in binding of human HNF4 alpha to DNA. P41235. HNF4a-FITC DNA binding, fluorescence polarization, 1 h. activity change, % at 10 µM. 360,000 tested, 0.3% active. AID 1224865; in the data active means activity change above about 30%, passing the limit was not always enough;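 further: controls were the assay level and a saturating level of protein; the project sought stronger binding though the title names inhibitors; some compounds called inactive have numbers as strong as hits; positive values seem to mean higher polarization but the record does not say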
Vif TR-FRET: inhibitors of Vif binding to APOBEC3G peptide, primary screen, biochemical, TR-FRET, GST-Vif 1-94, biotin-A3G peptide, dose response retest (AID 1117319); inhibition, %; hits with a dose series show IC50 in µM; TR-FRET GST-Vif / biotin-A3G peptide binding; higher % means a stronger effect; test concentration not given here; strong numbers were not always called active; 260,000 tested, 0.57% active;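 active means above the screen mean plus three standard deviations and confirmed in dose response; inconclusive means results disagree or hit not tested in dose response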;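 further: Vif residues 1-94 fused to GST binding biotinylated APOBEC3G peptide 110-148; 0% = full assay without inhibitor and 100% = GST in place of GST-Vif; retest series ran down from 100 µM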
B2AR ag: agonists of human beta-2 adrenergic receptor inducing internalization; response, % (no concentration beside the values); Am2.2-beta2AR cells, FAP receptor internalization, flow cytometry; reference of the scale not given here; 340,000 tested, 0.43% active;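 active means response above a set limit, near 3 SD of response in nonfluorescent compounds, cut at about 42% in these data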;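 further: stock transfer was 100 nL into about 11 µL; a reference agonist was the positive control; negative values mostly stem from fluorescent compounds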
LANA-H2B inh: blocks KSHV LANA binding to histone H2A/H2B; cell-free LANA-H2A/H2B peptide, fluorescence polarization; inhibition, % (no concentration beside the values); 320,000 tested, 0.6% active; AID 2629; Q9QR71; in the data active means inhibition mostly above about 10%, no sharp cut-off; inactive means mostly below about 6.7%;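 further: stock transfer was 7.5 nL into about 10 µL; 0% = median of vehicle wells and 100% = median of positive control wells; one replicate is shown; the record names a cut of 25% in any replicate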
Target sequence (Q9QR71 whole entry, looked up): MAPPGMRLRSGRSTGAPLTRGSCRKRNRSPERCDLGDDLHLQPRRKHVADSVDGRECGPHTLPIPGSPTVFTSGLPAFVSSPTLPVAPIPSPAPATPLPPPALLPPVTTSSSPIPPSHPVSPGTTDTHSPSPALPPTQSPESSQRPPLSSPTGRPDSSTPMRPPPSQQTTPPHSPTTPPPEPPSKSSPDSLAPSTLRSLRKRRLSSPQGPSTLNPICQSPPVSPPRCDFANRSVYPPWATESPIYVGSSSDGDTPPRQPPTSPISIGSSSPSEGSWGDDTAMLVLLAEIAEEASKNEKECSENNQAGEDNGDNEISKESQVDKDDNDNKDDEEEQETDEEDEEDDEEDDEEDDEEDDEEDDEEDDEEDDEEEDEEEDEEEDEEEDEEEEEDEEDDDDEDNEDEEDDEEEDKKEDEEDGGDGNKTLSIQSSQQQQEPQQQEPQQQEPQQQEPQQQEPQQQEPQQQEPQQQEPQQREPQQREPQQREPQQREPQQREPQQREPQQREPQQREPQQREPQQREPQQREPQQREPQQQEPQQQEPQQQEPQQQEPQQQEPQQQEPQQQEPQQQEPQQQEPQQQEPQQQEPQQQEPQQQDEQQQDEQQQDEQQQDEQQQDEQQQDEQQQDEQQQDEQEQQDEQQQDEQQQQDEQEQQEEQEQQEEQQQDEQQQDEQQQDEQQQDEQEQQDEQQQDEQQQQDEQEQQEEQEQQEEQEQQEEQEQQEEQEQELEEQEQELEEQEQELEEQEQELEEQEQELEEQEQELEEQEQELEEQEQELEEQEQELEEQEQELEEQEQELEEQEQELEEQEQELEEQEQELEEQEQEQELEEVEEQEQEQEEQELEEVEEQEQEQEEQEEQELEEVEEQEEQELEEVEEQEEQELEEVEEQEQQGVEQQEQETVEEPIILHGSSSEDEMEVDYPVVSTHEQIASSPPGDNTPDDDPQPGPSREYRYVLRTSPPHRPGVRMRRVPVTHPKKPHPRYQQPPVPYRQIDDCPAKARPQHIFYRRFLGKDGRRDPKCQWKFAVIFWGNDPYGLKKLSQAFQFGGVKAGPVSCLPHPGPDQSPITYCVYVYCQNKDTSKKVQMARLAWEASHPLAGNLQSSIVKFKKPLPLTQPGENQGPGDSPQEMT
* = called active by the depositor; i = inactive; ? = inconclusive; nt = not tested or not shown.

SMILES | E coli growth | UCH37 DUB inh | Bfl-1 A1 inh | HNF4A DNA FP | Vif TR-FRET | B2AR ag | LANA-H2B inh
COc1ccc(C(=O)O)cc1S(=O)(=O)N(CCc1ccccc1)Cc1ccccc1 | 0.7 | 2.8 | -0.4 | 0.7 | -14% | 11 | -1.4
CCC(C)NS(=O)(=O)c1ccc(NC(C)=O)cc1 (stereo unspecified) | 0.66 | 1.3 | 0.4 | -0.9 | -1% | -2 | -0.2
CC1CCc2nc(NC(=O)C3CC3)sc2C1 (stereo unspecified) | 0.79 | 1.3 | -1.1 | -2.1 | 19% | -8 | -4.6
CCC(=O)c1ccc(OCC(=O)NNC(=O)c2cc(C)oc2C)cc1 | 0.67 | 4.6 | nt | -1.3 | 3% | -2 | nt
CCNC(=O)/C(=C\C=C\c1ccccc1)NC(=O)c1ccc(Br)o1 | 0.67 | 13 | 0.1 | 1.1 | 10% | 8 | 1.2
COC(=O)Nc1ccc(S(=O)(=O)NC2CCCCC2)cc1 | 0.69 | 0.9 | 0.1 | 0.8 | nt | -1 | 0.1
CC(C)CC(=O)Nc1ccccc1N1CCN(c2ccccc2)CC1 | 0.66 | 0.8 | 0.7 | 3.0 | -6% | 10 | 5.5
Nc1ccccc1C(=O)Nc1cccc2ccccc12 | 0.7 | -11 | -1.5 | 4.0 | nt | -5 | -3.6
O=[N+]([O-])c1ccc(Cl)cc1C=NNc1ccccn1 | nt | nt | nt | -2.4 | 1% | -12 | nt
Cc1cccc(NC(=O)C2(C)CC3c4ccccc4C2c2ccccc23)c1 (stereo unspecified) | 0.77 | -6.4 | 0.0 | -0.8 | 29% | -1 | 3.3
CC(=O)Nc1ccc(N2CCOCC2)c([N+](=O)[O-])c1 | 0.66 | 1.9 | 1.1 | 0.0 | -6% | 4 | -1.9
CCN1C(=O)c2ccc(C(=O)O)cc2C1=O | 0.69 | 0.3 | -2.8 | -0.1 | 19% | 5 | 0.6
CCOC(=O)c1c(NC(=S)Nc2ccccc2C)sc2c1CCC2 | 0.69 | 4.8 | 0.4 | -0.6 | nt | 2 | 0.4
CC1(c2nnc(Cc3ccccc3)o2)CC(c2ccccc2F)=NO1 (stereo unspecified) | 0.66 | 0.0 | 0.6 | 6.1 | nt | 2 | -1.5
O=C(NCC(c1ccco1)N1CCOCC1)c1cccc(Cl)c1 (stereo unspecified) | 0.68 | 6.0 | 0.8 | 4.2 | 3% | -3 | -1.4
CC#CCN(CC#CC)S(=O)(=O)c1ccc(-n2cnnn2)c(OC)c1 | 0.64 | 0.2 | 0.3 | -3.9 | -1% | 4 | -5.3
CC1(C)CC(=O)C(CC(=O)Nc2cc(C(F)(F)F)ccc2Cl)C(=O)C1 | 0.71 | 0.8 | -0.3 | -1.3 | 22% | -8 | -2.4
Cn1c(N)c(C(=O)COC(=O)C2CC(O)CN2S(=O)(=O)c2ccc(Cl)cc2)c(=O)n(C)c1=O (stereo unspecified) | 0.65 | 2.4 | 0.8 | 5.1 | nt | -1 | -2.2
N#Cc1sc(C(N)=O)c(-c2ccccc2)c1-c1ccccc1 | 0.73 | 3.7 | -0.8 | -0.3 | -2% | -9 | -3.2
O=C1NC(=O)/C(=C/c2ccccc2OCc2ccccc2)S1 | 0.75 | -12 | 0.7 | -2.4 | -7% | 4 | -3.3
CCc1n[nH]c(=S)n1/N=C/c1cc(Br)c(O)c(OC)c1 | nt | nt | -0.8 | 9.2 | 2% | 5 | 3.0
CCCSc1ccc(-c2nn(-c3ccccc3)cc2/C=C(/C#N)C(=O)N2CCOCC2)cc1 | 0.71 | -26 | 0.5 | -2.9 | -5% | 9 | 0.5
Cc1cc(OC(C)C(=O)NCc2ccccn2)c2c(C)c(Cc3ccccc3)c(=O)oc2c1 (stereo unspecified) | 0.7 | -3.8 | 0.7 | 0.1 | nt | 3 | -4.3
CCOC(=O)c1c(C)[nH]c(C(=O)CSc2nnc(Nc3ccccc3F)s2)c1C | 0.66 | 3.6 | 1.3 | 5.6 | -8% | -15 | 0.0
O=S(=O)(O)c1ccc(N2N=C(c3ccccc3)CC2c2ccccc2)cc1 (stereo unspecified) | 0.61 | i | 0.6 | -0.2 | -9% | 1 | 6.4
CCOC(=O)C1CCN(C(=O)CSc2ccc(Cl)cc2)CC1 | 0.73 | 0.4 | 0.0 | 4.0 | 30% | -3 | -1.4
Cc1cc(N)ccc1NC(=O)CN1CCOCC1 | 0.7 | -0.1 | -0.5 | 1.0 | nt | -10 | 3.0
CC1(C)CC(=O)c2cc(N=C/C(C(=O)c3ccccc3)=C(\O)c3ccccc3)c(=O)oc2C1 | 0.71 | 2.5 | 0.7 | 0.9 | 0% | -1 | 1.2
CCOC(=O)Nc1nnc(-c2cccc(OC)c2)s1 | 0.67 | -33 | -0.9 | 4.8 | -3% | -2 | 0.3
C=CCN1C(=O)C(=O)N(Cc2nc3ccccc3s2)C1=O | 0.71 | -0.1 | 0.6 | -1.2 | nt | 3 | 8.6
O=C(O)Cc1cccc(=O)c(O)c1C(=O)O | nt | nt | nt | -45 | 8.2µM* | -3 | nt
ON/C=N/C(=S)Nc1ncc(C(F)(F)F)cc1Cl | 0.66 | -1.5 | 1.7 | -1.6 | nt | 2 | -0.3
Cc1ccc(NC(=O)Nc2ccnc(-c3cccnc3)n2)cc1 | 0.69 | 4.9 | -2.2 | -2.4 | -3% | 19 | -0.9
COCCN(CC(=O)Nc1cccc(C)c1C)C(=O)Cc1ccsc1 | 0.7 | 1.0 | 0.1 | 2.4 | nt | -9 | -2.5
COc1ccc(/C=C(\NC(=O)c2ccc(C)cc2)C(=O)NCCCn2ccnc2)cc1OC | 0.64 | -1.2 | 0.0 | 1.2 | 1% | 7 | 3.9
O=c1cc(Cn2ccnc2)c2cc3c(cc2o1)CCC3 | 0.6 | -16 | 0.0 | 1.6 | -1% | -9 | -1.0
Cc1cccc(N2CCN(C(=O)CCNS(=O)(=O)c3cccs3)CC2C)c1 (stereo unspecified) | 0.71 | -0.3 | 0.2 | 8.8 | nt | 1 | -0.1
COc1ccc(S(=O)(=O)NCc2ccc(C(=O)N3CCN(c4ccccn4)CC3)cc2)cc1 | 0.69 | 4.1 | 0.0 | 4.8 | -5% | 9 | -1.2
Cc1cccc(NC(=O)CSCC(=O)Nc2cccc3ncccc23)c1 | 0.67 | -0.8 | -0.3 | -2.4 | -5% | 2 | 1.0
Cc1ccc(O)c(C(=O)c2cc(C#N)c(=O)n(-c3nccs3)c2)c1 | 0.69 | 2.6 | 0.0 | 35 | 14% | -54 | 0.1

A second format for some results above.
> O=C(O)Cc1cccc(=O)c(O)c1C(=O)O
  E coli growth = nt
  UCH37 DUB inh = nt
  Bfl-1 A1 inh = nt
  HNF4A DNA FP = -45
  Vif TR-FRET = 8.2µM*
  B2AR ag = -3
  LANA-H2B inh = nt
> ON/C=N/C(=S)Nc1ncc(C(F)(F)F)cc1Cl
  E coli growth = 0.66
  UCH37 DUB inh = -1.5
  Bfl-1 A1 inh = 1.7
  HNF4A DNA FP = -1.6
  Vif TR-FRET = nt
  B2AR ag = 2
  LANA-H2B inh = -0.3
> Cc1ccc(NC(=O)Nc2ccnc(-c3cccnc3)n2)cc1
  E coli growth = 0.69
  UCH37 DUB inh = 4.9
  Bfl-1 A1 inh = -2.2
  HNF4A DNA FP = -2.4
  Vif TR-FRET = -3%
  B2AR ag = 19
  LANA-H2B inh = -0.9
> COCCN(CC(=O)Nc1cccc(C)c1C)C(=O)Cc1ccsc1
  E coli growth = 0.7
  UCH37 DUB inh = 1.0
  Bfl-1 A1 inh = 0.1
  HNF4A DNA FP = 2.4
  Vif TR-FRET = nt
  B2AR ag = -9
  LANA-H2B inh = -2.5

Carrying on.
SMILES | E coli growth | UCH37 DUB inh | Bfl-1 A1 inh | HNF4A DNA FP | Vif TR-FRET | B2AR ag | LANA-H2B inh
Cc1cccc(Cl)c1OCCCN1CCOCC1 | 0.64 | -1.5 | -0.5 | -1.1 | nt | -1 | 1.3
O=C(COC(=O)/C=C/c1ccccc1)Nc1ccccc1Br | 0.68 | 0.9 | -0.4 | 3.9 | 4% | -6 | 0.5
O=C(NNS(=O)(=O)c1ccccc1F)c1cc(-c2ccccc2)n[nH]1 | 0.64 | 3.1 | 0.4 | -1.4 | -1% | -1 | 13
COc1ccc(CCNC(=O)c2nnn(-c3ccc4c(c3)OCCO4)c2N)cc1OC | 0.73 | -0.7 | 0.7 | -1.7 | 4% | 0 | 2.1
CC(=O)N1CCN(CC(=O)Nc2sccc2C#N)CC1 | 0.72 | 1.2 | 1.2 | 0.1 | 0% | 4 | -3.1
O=C(Nc1nc2ccccc2[nH]1)c1cccc(S(=O)(=O)N2CCOCC2)c1 | 0.72 | 4.1 | -0.6 | -2.6 | -3% | -6 | 6.8
CCCc1nc2ccccc2c(C(=O)OC(C)C(=O)NCc2ccc3c(c2)OCO3)c1CC (stereo unspecified) | 0.75 | 5.6 | -1.5 | 0.7 | -5% | 4 | -5.5
C=CCN(c1ccccc1)S(=O)(=O)c1cccc(C(=O)Nc2ccncc2)c1 | 0.64 | 3.1 | 1.4 | -3.5 | -5% | 6 | nt
O=C1CCc2cc(S(=O)(=O)NCc3ccc(Cl)cc3)cc3c2N1CC3 | 0.67 | -2.2 | 0.4 | -6.7 | 2% | -6 | 2.3
CCCCn1c(N)c(N(CC(C)C)C(=O)c2oc3ccc(OCC)cc3c2C)c(=O)[nH]c1=O | 0.74 | -0.6 | 0.6 | 5.8 | nt | -19 | 8.8
O=c1c2ccccc2nc(-c2ccccc2)n1CCN1CCOCC1 | 0.74 | 3.0 | -0.9 | 7.3 | 6% | -14 | 3.7
O=C1CCc2cc(S(=O)(=O)NC3CCCCC3)cc3c2N1CC3 | 0.63 | 5.2 | -0.7 | -0.9 | 0% | 6 | -5.2
COCC(C)NC(=S)Nc1ccccc1[N+](=O)[O-] (stereo unspecified) | 0.65 | 2.8 | 0.5 | 0.7 | nt | 11 | -0.3
O=C(CSc1nc2ccc(Cl)cc2[nH]1)NCCc1ccc(Cl)cc1 | 0.7 | 4.6 | 0.4 | 0.6 | -3% | -5 | -5.1
CCCc1ccc(OCC(=O)Nc2cc(S(=O)(=O)CC)ccc2O)cc1 | 0.61 | 1.1 | 0.1 | 0.1 | nt | 3 | 10
COc1ccccc1/C=C1\SC(=O)N(CCC(=O)N2CCCCC2CCO)C1=O (stereo unspecified) | 0.67 | 4.3 | 0.7 | 0.8 | 5% | 9 | -2.7
O=C(Nc1ccccn1)c1cccnc1 | 0.72 | -0.4 | 1.8 | -0.9 | 0% | -6 | 1.8
NC(=O)c1ccc(/C(N)=N/S(=O)(=O)c2cc(C(F)(F)F)cc(C(F)(F)F)c2)cc1 | 0.7 | 6.0 | 0.5 | -2.2 | 2% | 5 | 4.2
O=C(O)c1cccc(S(=O)(=O)Nc2ccc(-c3ccccc3)cc2)c1 | 0.72 | 5.4 | 0.3 | -0.7 | 3% | -4 | 0.6
CCOc1ccccc1NC(=S)N1C2CCC1CC(NC(=O)NC13CC4CC(CC(C4)C1)C3)C2 (stereo unspecified) | 0.7 | 3.9 | 0.1 | -0.9 | 4% | -10 | 2.7
CC(C)CN(CC(C)C)C(=O)c1cc2c(=O)n3ccccc3nc2s1 | 0.66 | -315 | ? | 5.2 | -1% | -11 | 2.2
O=S(=O)(O)CCS | 0.68 | 3.6 | 2.2 | -0.5 | nt | 7 | 1.1
OC(CSc1ccccc1)CN1CCN(c2ccc(Cl)cc2)CC1 (stereo unspecified) | 0.65 | 2.1 | nt | 2.5 | -13% | -13 | nt

Source: PubChem (several laboratories)
